# High-throughput results as filed in PubChem BioAssay.
# CDC25B CDK2 inh: human CDC25B-CDK2/CyclinA binding inhibition. z-score (concentration not given with the values). HTRF CDC25B-CDK2/CyclinA binding, anti-His/anti-Flag; hits give high values. 94,000 compounds, 0.72% hits. P30305+P24941;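 further: score is relative to mean and SD of negative controls; strong numbers were not always called active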
# TAR Tat displ: HIV-1 TAR-Tat binding disruption. z-score (concentration not given with the values). HIV-1 TAR RNA, Tat peptide displacement FRET; hits give high values. 100,000 compounds, 0.6% hits. AID 1259389;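 further: score is relative to mean and SD of negative controls; some compounds called inactive have numbers as strong as hits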
# Active calls of the source: *; . = not tested or not shown; & = joins results of further samples.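 How the source made its calls: active means z-score from 3 up in half or more of its runs; inactive means the rest.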
mol | CDC25B CDK2 inh | TAR Tat displ
C=CCSc1nnc(NC(=O)c2nn(-c3cccc(C)c3)ccc2=O)s1 | 0.16 | 0.77
CC(C)C(=O)NNc1ncccc1C(F)(F)F | -1.6 | .
Cn1nc(C(C)(C)C)cc1C(=O)NC1CCCCNC1=O (stereo unspecified) | -1.9 | .
CCCCOC(=O)c1ccc(NC(=O)CCC(=O)OCC(=O)c2ccc(Cl)c([N+](=O)[O-])c2)cc1 | 0.78 | .
Cc1cc(C)n(-c2nc3cc(Cl)ccc3nc2NCCN2CCOCC2)n1 | . | -0.73
N#Cc1c(SCC(=O)Nc2cccc(F)c2)nc2c(c1-c1ccco1)CCCC2 | -1.7 | .
O=C(c1cc2c(s1)-c1ccccc1S(=O)(=O)C2)N1CCN(c2ccccc2)CC1 | -3.5 | -0.17
Cc1cc(Nc2ccc3c(c2)OCCO3)nc(-n2cc([N+](=O)[O-])cn2)n1 | . | 1.2
COC(=O)c1cc(S(=O)(=O)Nc2cc(OC)ccc2OC)c[nH]1 | . | 2.7
Cc1ccc(C2Nn3c(nnc3-c3ccccc3)SC2C(=O)N2CCCCC2C)cc1 (stereo unspecified) | -1 | -0.1
Cc1nc(-c2ccc(Oc3ccc(C(F)(F)F)cn3)cc2)no1 | -0.29 | .
O=C(NCc1n[nH]c(=O)c2ccccc12)C(=O)N1CCc2ccccc2C1 | . | 1.8
COc1ccc(OCC(=O)Oc2cccc(-n3cnnn3)c2)cc1 | -0.75 | -0.64
CCOC(=O)c1c(NC(=O)C2=Cc3cc(OC)ccc3OC=C2)sc2c1CCC(C)C2 (stereo unspecified) | -0.71 | -1.7
Cc1ccc(-c2c(C(=O)O)oc(=O)c3ccccc23)cc1 | . | 0.86
CCc1nn2c(=O)c(S(=O)(=O)N3CCN(c4ccccc4)CC3)c(C)nc2s1 | -0.36 | 0.8
CN1CCN(C(=O)C2CCCN(S(=O)(=O)c3ccc4c(c3)CCCC(=O)N4)C2)CC1 (stereo unspecified) | . | 5.6
Cc1cc(C)c(S(=O)(=O)Nc2ccc3c(c2)N(S(C)(=O)=O)CCC3)c(C)c1 | . | 0.04
C=C1C(=O)O[C@@H]2[C@H]3O[C@]3(C)CC/C=C(\C)CC[C@@H]12 | . | 3.2
O=C(Cn1ncc2ccsc2c1=O)NCc1ccc2c(c1)OCO2 | -1.2 | 1.8
O=C(OCCN=C1NS(=O)(=O)c2ccccc21)C1CC(=O)N(c2ccc(Cl)cc2)C1 (stereo unspecified) | 0.13 | -0.16
Cn1c(=O)c(=O)n(C)c2cc(S(=O)(=O)N3CCCC3C(=O)Nc3nccs3)ccc21 (stereo unspecified) | -2.2 | 2.5
CCCCNc1nc(CC)c2c(c1C#N)CCCC2 | -0.32 | .
O=S(=O)(c1ccc(Br)cc1)N1CCN(c2cc(-c3ccccc3)ncn2)CC1 | . | 0.95
CSc1nn(CC(=O)Nc2cccc(Cl)c2)c(N)c1S(=O)(=O)c1ccccc1 | . | 0.68
CC1(C)CC(=O)C2=C(C1)Nc1nc(SCCN3CCOCC3)[nH]c(=O)c1C2c1ccc(F)cc1 (stereo unspecified) | -0.83 | 0.96
O=C1c2cccc3cccc(c23)C(=O)N1Nc1ccccc1 | -3 | .
CSc1nnc(-c2ccc(S(=O)(=O)O)s2)n1C | -1.6 | .
Cc1ccc(Nc2c(-c3ccc(C)cc3)nc3cnccn23)cc1 | 0 | .
CC1=CC(O)(c2ccccc2)C(N2CCOCC2)N1O (stereo unspecified) | -0.85 | .
Cc1ccc(C2SCCN2C(=O)c2cc3cc(Br)ccc3oc2=O)cc1 (stereo unspecified) | -0.45 | .
O=C(NCCc1ccccn1)c1cnn(-c2ccc(Cl)cc2)c1C(F)(F)F | -1.5 | .
CN(C)CCn1c2c(c(SCC(=O)Nc3cccc(Cl)c3)nc1=O)CCC2 | . | 2.1
Cc1ccc(OCCCCSc2nc3c(c(=O)[nH]2)CCC3)cc1 | -0.64 | 1.6
O=C(NCc1ccccc1)c1c(O)nc2ccccn2c1=O | 0.29 | 0.46
CCOC(=O)c1c(C)oc2ncnc(N3CCCC3)c12 | . | -0.31
Cc1ccccc1-c1noc(C(C)NS(=O)(=O)c2ccc(F)cc2)n1 (stereo unspecified) | -1.6 | 2.4
Cc1ccc(Nc2c(C)c(C)nc3ncnn23)cc1Cl | . | 1.1
CCCc1cc(=O)[nH]c(Nc2cccc(F)c2)n1 | 1.9 | 1.4
Cc1ccc(NS(=O)(=O)c2cc(-c3cnc(C4CC4)o3)ccc2C)cc1Cl | . | 1.4

# A second format for some results above.
# Below each compound – CDC25B CDK2 inh | TAR Tat displ
> O=C1c2cccc3cccc(c23)C(=O)N1Nc1ccccc1
→ -3 | .
> CSc1nnc(-c2ccc(S(=O)(=O)O)s2)n1C
→ -1.6 | .

# The results go on.
mol | CDC25B CDK2 inh | TAR Tat displ
COc1ccccc1NC(=O)Nc1c(C)nc2nc[nH]n2c1=O | . | 2.4
O=C1CCCc2cc(S(=O)(=O)N3CCCC(CN4CCc5ccccc5C4)C3)ccc2N1 (stereo unspecified) | . | -0.2
CC1Sc2ccc(S(=O)(=O)NC3CCCC(C)C3C)cc2NC1=O (stereo unspecified) | . | 2.2
O=C(O)c1cc(NC(=O)c2cccc(N3C(=O)c4ccc([N+](=O)[O-])cc4C3=O)c2)cc(C(=O)O)c1 | 0.88 | .
O=S(=O)(c1ccc2c(c1)CCCC2)N1CCN(c2nc3ccccc3n3cccc23)CC1 | -1.6 | 0.42
c1ccc(-c2nn3c(Cn4nnc5ccccc54)nnc3s2)cc1 | 0.42 | 2.1
Cc1ccc(C2OCC3(CO2)SC(N)=NC3=O)cc1 (stereo unspecified) | 0.38 | .
Cc1ccc2c(c1)-c1cc(C)nn1C(c1ccc(O)cc1)N2 (stereo unspecified) | -1.7 | 1.2
COc1ccc(OC)c(NC(=O)Nc2nc3c(s2)CCCCCC3)c1 | . | -0.66
CCCCSc1nc2n(n1)C(c1ccc(C)cc1)C1=C(CCCC1=O)N2 (stereo unspecified) | -1.6 | 3.1

# Taken from the results shown, 3 compounds:
mol | CDC25B CDK2 inh | TAR Tat displ
COc1ccccc1NC(=O)Nc1c(C)nc2nc[nH]n2c1=O | . | 2.4
O=C1CCCc2cc(S(=O)(=O)N3CCCC(CN4CCc5ccccc5C4)C3)ccc2N1 (stereo unspecified) | . | -0.2
CC1Sc2ccc(S(=O)(=O)NC3CCCC(C)C3C)cc2NC1=O (stereo unspecified) | . | 2.2

# (continued)
mol | CDC25B CDK2 inh | TAR Tat displ
CCC(C)Oc1ccc(C2C=C(C(=O)O)Nc3ncnn32)cc1OC (stereo unspecified) | -0.14 | 1.1
CCCC(=O)Oc1ccc2c(=O)c(-c3ccc(OC)c(OC)c3)c(C(F)(F)F)oc2c1 | -0.77 | 2.2
Cc1c(NC(=O)C2=CC(c3ccc(F)cc3)=NS(=O)(=O)N2C)c(=O)n(-c2ccccc2)n1C | -0.79 | -0.57
Cc1ccc(NC(=O)CSCc2cc(=O)n3nc(C(C)C)sc3n2)c(C)c1 | . | -0.93
Cc1cc(C)c(C(=O)CC2(C(F)(F)F)NCCN2)c(=O)[nH]1 | -0.68 | .
Cc1nc2sc(C(c3cccs3)N3CCc4ccccc4C3)c(O)n2n1 (stereo unspecified) | -1.4 | .
CC1=C(c2ccccc2)S(=O)(=O)N=C1Nc1ccc(C)cc1Cl | -3.5 | 0.72
COC(=O)c1ccc(-c2ccco2)n1CC(=O)N1CCOCC1 | . | 0.09
CCOC(=O)N1CCC(NC(=O)C2CCN(c3ccc(-c4cccs4)nn3)CC2)CC1 | . | 0.14
O=c1c(NCCc2ccc(Cl)cc2)nccn1-c1ccc2c(c1)OCO2 | . | 0.26
CC1CCN(c2ncnc3c2nc2n3CCCC2)CC1 | . | 1.1
CCSc1nc2c(c(=O)n1C)C1(CCCC1)Cc1ccccc1-2 | 0.27 | 2
Cn1ncc(Br)c1C(=O)NC1CCSC1=O (stereo unspecified) | -0.3 | .
O=C(C1CCN(c2ccccc2)C1=O)N1CCC(N2CCCCC2)CC1 (stereo unspecified) | . | -1.2
O=C(c1cc2c(s1)-c1ccccc1OC2)N1CCN(c2ncccn2)CC1 | 1.2 | 2
COc1cc(C2c3c(-c4ccccc4O)n[nH]c3C(=O)N2CCCO)ccc1O (stereo unspecified) | -1.3 | 1.9
CCOc1ccc(C2=Nc3ccccc3NC(c3cccs3)=N2)cc1OCC | -0.99 | 2.3
O=C(NCC1CCCO1)NC1(C(F)(F)F)Oc2ccccc2O1 (stereo unspecified) | 2.4 | .
COc1cc(OC)cc(-c2cc(N)n(S(=O)(=O)c3ccc(OC)c(OC)c3)n2)c1 | -2.2 | 4.9
Cc1nc(C(F)(F)F)ccc1NC(=O)c1ccc(C(F)(F)F)cc1 | -3.1 | .
CC(NC(=O)C(=O)N1CCCCC1)C(c1cccs1)N1CCOCC1 (stereo unspecified) | 0.55 | 0.93
O=C(CSc1ccc(-c2cccs2)nn1)Nc1ccc2c(c1)OCCO2 | -0.92 | 0.86
CCc1nnc2sc(-c3ccc(CNS(=O)(=O)c4ccccc4)cc3)nn12 | . | 0.52
Cc1ccc(NCc2nnc3n2CCCCC3)cc1Cl | . | 0.31
CSc1ccc(OCOc2ccc(SC)cc2)cc1 | -2.2 | .
Cc1nonc1C1=CSC2N=C(N)N=C(N)N2N1 (stereo unspecified) | 1 | .
COc1cc2nc(SCC(N)=O)n3nc(CCn4c(C)nc5ccccc54)nc3c2cc1OC | -1.2 | 3.5
O=c1[nH]c(=O)c2cnn(-c3ccccc3)c2[nH]1 | -0.33 | 0.2
CS(=O)(=O)c1ncc(Cl)c(C(=O)Nc2c(C(=O)c3ccccc3)oc3ccccc23)n1 | 0.3 | 0.98
CNC(=O)C1CCC(Cn2c(=O)c3sccc3n(CC(=O)Nc3ccc(F)cc3F)c2=O)CC1 (stereo unspecified) | . | 0.81

# Entries of single compounds as entered above.
# `CSc1ccc(OCOc2ccc(SC)cc2)cc1` is entered as CDC25B CDK2 inh: -2.2; TAR Tat displ: .
# `CS(=O)(=O)c1ncc(Cl)c(C(=O)Nc2c(C(=O)c3ccccc3)oc3ccccc23)n1` is entered as CDC25B CDK2 inh: 0.3; TAR Tat displ: 0.98

# The results go on.
mol | CDC25B CDK2 inh | TAR Tat displ
CC(C)CCNC(=O)[C@H](CC(C)C)NC(=O)[C@H]1O[C@@H]1C(=O)O | . | 0.82&0.51
O=C(CN1C(=O)CCc2cc(S(=O)(=O)N3CCCCC3)ccc21)NC1CC1 | . | -0.67
COc1ccc(Cn2c(SCc3ccc(C(=O)O)cc3)nc3cccnc32)cc1 | -0.58 | 1.1
CC1CC(=O)Nc2cc(S(=O)(=O)N3CCN(c4ccccn4)CC3)ccc2S1 (stereo unspecified) | . | 0.02
CC(C)(C)c1ccc(OCC(=O)NN)c(C(C)(C)C)c1 | -2.4 | .
COC1=CC(C)[C@@H]2C[C@H]3OC(=O)C[C@H]4C(C)=C(OC)C(=O)C([C@@]34C)[C@@]2(C)C1=O (stereo partly specified) | . | 3.6
CSc1nc(-c2ccccc2)c(C#N)c(N2CCN(c3ccc(F)cc3)CC2)n1 | -1.2 | -1.1
CNCCCN1c2ccccc2CCc2ccc(Cl)cc21 | . | 1.7
Cc1ccnc(NC(=O)C2CCCN(c3ncnc4c3nc3n4CCCCC3)C2)c1 (stereo unspecified) | . | 0.31
Cc1nc2sccn2c(=O)c1NC(=O)CC1CCCCC1 | . | 0.18
Cc1ccccc1Cn1c(C)c(C2=CCN(S(=O)(=O)c3c(C)nn(C)c3C)CC2)c2ccccc21 | . | 0.22
Cc1ccc(-c2nn3c(-c4ccco4)nnc3c3ccccc23)cc1 | -2 | -0.55
Cn1c(=O)[nH]c(=O)c2ncn(CC(=O)c3ccccc3)c21 | -0.63 | .
Cc1cc(NS(=O)(=O)c2ccc3[nH]c(=O)c(=O)[nH]c3c2)ccc1Br | -2.3 | 0.4
O=C(Nc1ccc(Br)cc1)N1CCN(c2nc3cc(F)ccc3n3cccc23)CC1 | . | 0.17
Fc1ccc(-c2nnc3sc(COc4ccc(Cl)cc4)nn23)cc1 | -1.8 | 2.7
Cc1ccc(C(=O)Nc2ccc3[nH]cc(C#N)c3c2)cc1 | -2.5 | .
Cc1ccccc1C(=O)Nc1cnc2c(C)cccn2c1=O | 1.9 | 0.48
CC(=O)N1CC(C(=O)O)Oc2ccc(Cl)cc21 (stereo unspecified) | 1.1 | 0.61
Cc1cc(Nc2cnn(-c3nc4ccccc4o3)c(=O)c2Cl)ccc1Br | -2.1 | 0.48
O=C(Nc1nccs1)C1CCCN(S(=O)(=O)c2ccc3[nH]c(=O)ccc3c2)C1 (stereo unspecified) | . | -0.92
O=C(Oc1ccccc1N1CCCCC1)c1sc2ccccc2c1Cl | -2.3 | .
O=C(CSc1nc2c(cnn2-c2ccc(F)cc2)c(=O)[nH]1)N1CCCc2ccccc21 | 1.7 | .
CC1=C(c2cccc(Br)c2)S(=O)(=O)N=C1Nc1ccc(F)cc1C | -2.5 | 0.41
CCCCNC(=O)CN(C)c1nn2c(=O)cc(CCC)nc2s1 | -0.64 | 1.2
COc1ccc(CCN2C(=O)c3ccccc3C2(O)Cc2ccccc2)cc1OC (stereo unspecified) | -0.02 | .
Cc1cc(N2CCCCC2)nc(N2CCN(C(=O)Nc3ccc(Cl)cc3)CC2)n1 | . | 2
COC(=O)c1ccc(C2CC(=O)Nc3c2c(=O)nc(SCc2cccc(Cl)c2)n3C)cc1 (stereo unspecified) | -1.1 | -0.68
CCN(CC)CCN(C(=O)CN1C(=O)CCC1=O)c1nc2ccc(Cl)cc2s1 | . | 0.24
COC(=O)c1sc(N2C(=O)c3oc4ccc(C)cc4c(=O)c3C2c2ccc(OC)cc2)nc1C (stereo unspecified) | -0.56 | 1
Cn1c(C(=O)NCc2ccco2)cc2oc3ccccc3c21 | -4.6 | .
Cc1oc2ncn3nc(-c4ccncc4)nc3c2c1C | . | 3.9
